HPGD inh: blocks human HPGD enzyme activity; P15428; purified HPGD, NADH fluorescence kinetic, PGE2 substrate; Potency, µM, inactives show at the top dose activity change, negative = inhibition, usual class: inhibitors; hit rate 4.3% among 150,000; AID 894; active = well fitted inhibition curve with a large enough effect (not every such curve was filed as active); inconclusive = small, poorly fitted or top-dose-only effect, or another doubt; inactive = no such curve, though single readings can be large or run the other way;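 also: top concentration of the series not given in the record; plate controls included wells without enzyme; inactives centre near -10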
Target sequence (P15428 whole entry, looked up): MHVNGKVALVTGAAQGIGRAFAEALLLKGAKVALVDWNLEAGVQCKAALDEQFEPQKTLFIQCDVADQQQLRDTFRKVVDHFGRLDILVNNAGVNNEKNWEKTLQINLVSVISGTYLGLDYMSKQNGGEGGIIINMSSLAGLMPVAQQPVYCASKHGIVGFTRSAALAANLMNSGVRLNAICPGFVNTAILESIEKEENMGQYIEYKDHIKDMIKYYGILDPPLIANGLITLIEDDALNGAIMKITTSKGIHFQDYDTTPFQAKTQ
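NADH formation kinetics: reaction with 30 uM PGE2 and 1 mM NAD+ (final), 20 nM enzyme, Tris-HCl pH 8 with Tween 20, after 15 min compound preincubation at room temperature. Fluorescence change, last versus first of five reads.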
Starred values were filed as active, the others as inactive; ? = inconclusive; [ ] = another dose, or the depositor's remark. % is scaled to controls: 0 for no effect and ±100 for the full control effect; potency is read from the fitted curve at half-maximal effect.

| SMILES | HPGD inh |
| --- | --- |
| Cc1ccc(C(=O)Oc2cccc(NC(=O)c3ccco3)c2)cc1S(=O)(=O)N1CCC(C)CC1 | -17% |
| COc1ccc(CNC(=O)C2COc3ccccc3O2)cc1 (centres undefined) | 14µM* |
| CCn1c(COc2ccccc2C)nnc1SCC(=O)CC(=O)Nc1ccccc1OC | -1% |
| COC(=O)CN(C)C1CC(=O)N(c2ccc(Cl)cc2)C1=O (centres undefined) | -22% |
| CC(=O)N1CCN(CCN=CC2=C(O)CC(c3ccco3)CC2=O)CC1 (centres undefined) | -17% |
| O=C1/C(=C/c2ccc(O)cc2)CCc2ccc([N+](=O)[O-])cc21 | -6% |
| O=C(Cc1ccccc1)NCC(=O)N1CCCCCC1 | -25% |
| CCC(C)NC(=O)CSc1nnc(-c2ccncc2)n1-c1ccc(OC)cc1 (centres undefined) | -9% |
| CCOC(=O)c1cccc(NC(=O)CS(=O)(=O)Cc2nc(-c3cccc(OC)c3)oc2C)c1 | -5% |
| C/C(=N\NC(=S)Nc1cccc(C)c1)c1ccccc1 | -11% |
| CCCCC(=O)N/N=C(\C)CC(=O)Nc1cc(Cl)ccc1OC | -10% |
| O=C(Cc1ccc(-n2cccc2)cc1)N1CCc2ccccc21 | 2% |

Brought forward from above: 3 entries, followed by the next part.
| SMILES | HPGD inh |
| --- | --- |
| C/C(=N\NC(=S)Nc1cccc(C)c1)c1ccccc1 | -11% |
| CCCCC(=O)N/N=C(\C)CC(=O)Nc1cc(Cl)ccc1OC | -10% |
| O=C(Cc1ccc(-n2cccc2)cc1)N1CCc2ccccc21 | 2% |
| CN(c1ccc(C(=O)NCCSC(C)(C)C)cc1)S(C)(=O)=O | 5% |
| CCNc1ncc2nc(-c3ccc(Cl)cc3)c(=O)n(-c3ccccc3)c2n1 | ? |
| CCN1CC2([N+](=O)[O-])CC=C(OC)C([N+](=O)[O-])(C1)C2 (centres undefined) | -2% |
| Cc1cc2c3c(c1)C(C)(c1ccccc1)CC(C)(C)N3C(=O)C21C(C#N)=C(N)OC2=C1C(=O)CC(C)(C)C2 (centres undefined) | -18% |
| O=C(NCc1ccccc1)c1ccc(-c2ccccc2F)o1 | -17% |
| COc1cccc(C(=O)OCC(=O)Nc2ccccc2N2CCOCC2)c1 | -8% |
| Cc1ccc(C(=O)N2CCCC2)c(F)c1F | 10µM* |
| O=C1NC(Cc2c[nH]c3ccccc23)C(=O)N1c1ccc(F)cc1 (centres undefined) | -12% |
| O=C(NCCCn1ccnc1)c1cc2c(s1)CCCCC2 | -6% |
| COc1nc(C)nc2c1sc(=S)n2C | -13% |
| COc1cccc(Nc2ncnc3nc[nH]c23)c1 | -17% |
| O=C(Nc1ccc2sc3ccccc3c(=O)c2c1)c1ccccc1Cl | ? |
| Fc1cccc(-c2cc3nc4c(c(N5CCC6(CC5)OCCO6)n3n2)CCCC4)c1 | ? |
| CN(C)S(=O)(=O)c1ccc(Nc2nc(C3CC3)nc3c2nnn3Cc2ccccc2Cl)cc1 | ? |
| COC(=O)c1ccc(NC(=O)C(=O)N2CCN(C(=S)Nc3ccccc3OC)CC2)cc1 | -2% |
| CC1CCN(c2c(NCC3CCC(C(=O)NCCc4ccccc4)CC3)c(=O)c2=O)CC1 (centres undefined) | 6.3µM* |
| CN1C(=S)SC(/[N+]([O-])=C\c2cccs2)C1(C)C (centres undefined) | -19% |
| CCn1c(CN2CCN(c3cccc(C)c3C)CC2)n[nH]c1=S | -17% |
| Cc1cc(=O)oc2cc(OCC(O)CN3CCN(c4ccccc4)CC3)ccc12 (centres undefined) | ? |
| Cc1ccc(C(=O)Nc2c(-c3cccs3)nc3cc(C)ccn23)cc1 | -14% |
| OCCN1CCN(CC(O)COc2ccc3c(c2)OCO3)CC1 (centres undefined) | -8% |
| Cc1cccc(NC(=S)N(C)Cc2cn(C)c3ccccc23)c1 | ? |
| c1ccc(Oc2cc(-c3ccccc3)ncn2)cc1 | -8% |
| N#CCSc1nnc(-c2ccccc2)c(-c2ccccc2)n1 | -12% |
| COCCNC(=O)/C(C#N)=C/C(C)=C/c1ccccc1 | -21% |
| Nc1c(Nc2ccccc2)c2ccccc2oc1=O | -22% |
| O=S(=O)(c1ccccc1)N1CCC[C@@]2(CCN(c3ccncc3)C2)C1 | 6% |
| CCCCc1c(C)c2ccc(OCC(C)=O)cc2oc1=O | 103%[activator] |
| Cc1cc(NC(=O)COC(=O)C(Nc2ccc(C(F)(F)F)cc2Cl)C(C)C)no1 (centres undefined) | -27% |
| CCSc1ncc(Cl)c(C(=O)Nc2ccccc2)n1 | -3% |
| COC(=O)c1cncc(O)c1 | -14% |
| COC(=O)/C(=C/Nc1cccc2ccccc12)[N+](=O)[O-] | ? |
| CCOC12NC(=O)CC(=O)N1C(c1ccccc1)=CS2 (centres undefined) | -23% |
| O=C(Nc1ccccn1)C1(c2ccccc2)CCCC1 | -9% |
| C=CCn1c(SCC(=O)c2[nH]c(C)c(C(=O)OCC)c2C)nc2scc(-c3ccc(OC)c(OC)c3)c2c1=O | -8% |
| COc1cc(OC)c(C(=O)OC(C)C(=O)Nc2cccc(C(F)(F)F)c2)cc1OC (centres undefined) | -9% |
| CCn1c(=O)c(C(=O)CN2CCN(S(=O)(=O)c3ccc(C)cc3C)CC2)c(N)n(Cc2ccccc2)c1=O | -10% |
| CCOC(=O)COc1cccc2c(=O)n(CC(=O)NCCc3ccc(OC)c(OC)c3)ccc12 | -22% |
| CCCCC/C=C\C/C=C\C/C=C\CC1OC1CCCC(=O)O (centres undefined) | -4% |
| CC12CCC(C(=O)Nc3cc(Cl)ccc3Cl)(C(Br)C1=O)C2(C)C (centres undefined) | -8% |
| COCc1n[nH]c(=S)n1-c1ccccc1 | -3% |
| Cc1cc(C)c(NC(=S)N2CCC(N(C)CC3CCCO3)CC2)c(C)c1 (centres undefined) | 0% |
| COc1cccc(NC(=O)c2cnsn2)c1 | -34% |
| C=C(C)COc1ccc(-c2nc(N)ncc2Oc2ccccc2OC)c(O)c1 | -20% |
| COC(=O)CC[C@@H](C)C1CC[C@H]2[C@H]3CC[C@H]4C[C@@H]5CCC4(C)[C@@]3(O5)[C@@H](Br)[C@@H](Br)[C@@]12C (some centres undefined) | -4% |
| O=C(Nc1cccc(C(F)(F)F)c1)c1cccnc1N1CCN(c2ccccc2)CC1 | -24% |
| Cc1ccccc1CN1C(=O)C2(OCCCO2)c2ccccc21 | -17% |
| COc1ccccc1-n1c(C)cc(SC)c(C(C)=O)c1=S | -10% |

The list goes on; the last 2 above are carried over.
| SMILES | HPGD inh |
| --- | --- |
| Cc1ccccc1CN1C(=O)C2(OCCCO2)c2ccccc21 | -17% |
| COc1ccccc1-n1c(C)cc(SC)c(C(C)=O)c1=S | -10% |
| N#Cc1cc(Oc2ccccc2)c(-n2nnc3ccccc32)cc1C#N | -6% |
| O=C(NCCCc1ccccc1)C1CC(=O)N(c2ccc3c(c2)OCCO3)C1 (centres undefined) | -2% |
| CCC(C)NC(=O)CS(=O)Cc1nc(-c2cccc(C)c2)oc1C (centres undefined) | -7% |
| CCN(c1ccccc1)c1cc(C)nc2nc(C)nn12 | -4% |
| CC1CCN(C(=O)c2ccc(N(C)S(C)(=O)=O)cc2)CC1 | 14µM* |
| COc1ccc(S(=O)(=O)n2nc(OC(=O)c3ccco3)cc2N)cc1 | -19% |
| CCN(CC)c1ccc(NC(=O)c2ccccc2)cc1S(=O)(=O)Nc1ccccc1OC | 1.8µM* |
| CCOC(=O)c1c(C)n(C)c2ccc(O)c(CN(C)C)c12 | -14% |
| CCN1C(=O)[C@H]2[C@H]3[C@H](O)[C@H](O)C/C(=N\OC[C@@H](C)[C@H](OCc4ccccc4)C(C)C)[C@@H]3CC[C@H]2C1=O | -9% |
| CC1CCCC(C)N1C(=O)c1cc2ncc(CCCl)cn2n1 (centres undefined) | 1µM* |
| COC(=O)C1=C(O)CSC1=Nc1ccccc1 | ? |
| CN1C=CC2=C(C#N)C(N)C(C#N)(C#N)C(c3ccccc3)C2C1 (centres undefined) | ? |
| CCOC(=O)c1c(NC(=O)CS(=O)(=O)c2cn(CC)c3ccccc23)sc2c1CCCC2 | -19% |
| Cc1cccc(N2CCN(S(=O)(=O)c3ccc4c(c3)CCN4C(=O)CCC(=O)O)CC2C)c1 (centres undefined) | -2% |
| Cc1ccc2cccnc2c1NC(=S)NC(=O)c1ccccc1 | -20% |
| COc1ccccc1C(=O)Nc1ccc(S(=O)(=O)Nc2cc(C)nc(C)n2)cc1 | -3% |
| CCN(CC)CCCN1C(=O)c2oc3ccccc3c(=O)c2C1c1cccc(OC)c1OC (centres undefined) | -3% |
| Cc1cccc2cc3c(N)c(C(=O)N4CCOCC4)sc3nc12 | ? |
| Cc1ccc(C=Nc2ccccc2C(N)=O)s1 | ? |
| Cc1cccc(N(C(=O)c2ccc(Cl)cc2)C2CS(=O)(=O)CC2OC(=O)c2ccc(Cl)cc2)c1 (centres undefined) | -11% |
| O=C(c1ccc(-c2ccc([N+](=O)[O-])cc2)o1)N1CCCCC1 | 7.1µM* |
| Cc1ccc(SCc2nc3ccccc3n2CC(=O)Nc2ccccc2)cc1 | -9% |
| Cc1cc(O)ccc1N/C=C1\CCCC1=O | ? |
| COc1cc(OC)nc(NC(C)=O)n1 | -13% |
| CC1=C(C)CC(C(=O)NNC(=O)c2ccccc2)C(C(=O)O)C1 (centres undefined) | 0% |
| O=C(N/N=C/c1ccc(Cl)cc1)c1cc2c(s1)-c1ccccc1CC2 | ? |
| COc1ccc(NC(=S)Nc2ccc3nc(C)c(C)nc3c2)cc1 | -8% |
| CCOc1ccc2nc3c(cc2c1)CN(CCCO)C(=NCCOC)S3 | -24% |
| Cc1nnc(SCC(=O)Nc2sc3c(c2C(N)=O)CCCC3)[nH]c1=O | -13% |
| CCC(=O)O[C@]1(C(=O)CCl)[C@@H](C)C[C@H]2[C@@H]3CCC4=CC(=O)C=C[C@]4(C)[C@@]3(F)[C@@H](O)C[C@@]21C | -16% |
| CCCn1c(SCC(=O)c2ccc3c(c2)OCCO3)nnc1-c1ccco1 | -3% |
| CC1CCCN(C(=O)C2CCN(CC(C)c3ccccc3)CC2)C1 (centres undefined) | 22µM* |
| O=C(CCC(=O)c1cccs1)NCc1ccccc1 | 32µM* |
| C[C@H](Cc1ccc(O)c(O)c1)[C@@H](C)Cc1ccc(O)c(O)c1 | 3.2µM* |
| CCN1CCN(C(c2cccs2)C(C)NC(=O)c2ccco2)CC1 (centres undefined) | 1% |
| C/C(=N\OCC(=O)Nc1nc2ccccc2s1)c1ccccc1 | -6% |
| COc1ccc(C2c3c(ncn(CCN4CCOCC4)c3=N)Oc3ccc4ccccc4c32)cc1OC (centres undefined) | -1% |
| CCn1cc(/C=N\NC(=O)c2ccc(Cl)cc2)cn1 | -10% |
| O=C(CNC(=O)c1ccco1)NCC(=O)OCc1cccc(C(=O)Oc2ccccc2)c1 | -4% |
| CCS(=O)(=O)N1CCCC(C(=O)NCc2cccc(OC)c2)C1 (centres undefined) | 1% |
| Cc1ccc2nc(NC(=O)Cn3nc(C)c([N+](=O)[O-])c3C)sc2c1 | -9% |
| Cc1ccc(NC(=O)Nc2ccccc2)cc1[N+](=O)[O-] | -20% |
| Cc1ccc(CNc2oc(-c3ccco3)nc2C#N)cc1 | ? |
| COC(=O)[C@@]1(Cc2ccc(F)cc2)[C@H]2c3cc(C(=O)N(C)C)n(CCN4CCOCC4)c3C[C@H]2CN1C(=O)c1ccccc1 | -9% |
| CC[C@@H]1C(c2cccc(Cl)c2)=NN(c2ccc(Br)cc2)[C@H]1C(=O)N1CCOC1=O | ? |
| CC1CCC(=C(C#N)c2nc(-c3cc4ccccc4oc3=O)cs2)CC1 (centres undefined) | ? |
| OCCCCNCc1ccc(OCc2ccccc2Cl)cc1 | 2% |
| CCNS(=O)(=O)c1ccc(NC(=O)c2ccccc2OCC)cc1 | -8% |

The closing 4 records of the section before are carried over, then new ones follow.
| SMILES | HPGD inh |
| --- | --- |
| CC[C@@H]1C(c2cccc(Cl)c2)=NN(c2ccc(Br)cc2)[C@H]1C(=O)N1CCOC1=O | ? |
| CC1CCC(=C(C#N)c2nc(-c3cc4ccccc4oc3=O)cs2)CC1 (centres undefined) | ? |
| OCCCCNCc1ccc(OCc2ccccc2Cl)cc1 | 2% |
| CCNS(=O)(=O)c1ccc(NC(=O)c2ccccc2OCC)cc1 | -8% |
| COc1cc(C(=O)NC(=S)Nc2cccc(-c3cc4ccccc4oc3=O)c2)cc(OC)c1OC | -6% |
| COc1ccc(CCNC(=O)C23CN(Cc4ccccc4)CC2C(c2ccc([N+](=O)[O-])cc2)=NO3)cc1 (centres undefined) | -23% |
| Cc1c(NS(=O)(=O)c2ccc(Br)s2)c(=O)n(-c2ccccc2)n1C | -9% |
| CC1CCc2cc(F)ccc2N1S(=O)(=O)c1ccc(Cl)nc1 (centres undefined) | -19% |
| CCCCn1c(-c2csc(CC)c2)n[nH]c1=S | ? |
| O=C(CC(SCCO)c1ccc2c(c1)OCO2)c1cccs1 (centres undefined) | -13% |
| COC(=O)C(C#N)C(=C1C(=O)CC(C)(C)CC1=O)c1ccc(O)cc1 (centres undefined) | -6% |
| COc1ccc(C2CC(C(F)(F)F)n3nc(C(=O)O)c(Br)c3N2)cc1 (centres undefined) | -13% |
| O=C1NC2(CCCCC2)Oc2ccccc21 | -12% |
| OC1C=C2CCN3Cc4cc5c(cc4C(C1O)C23)OCO5 (centres undefined) | -22% |
| Cc1c(NC(=O)CN2C(=O)C3C4C=CC(C4)C3C2=O)c(=O)n(-c2ccccc2)n1C (centres undefined) | -11% |
| CCOCC(=O)Nc1sc2c(c1C(=O)OCC)CCCC2 | -18% |
| Cc1ccc(-c2nc3ccccc3s2)cc1S(=O)(=O)N1CCCC1 | -9% |

Source: PubChem BioAssay

This is a subset; rates above refer to the full screens.
